# Source: PubChem BioAssay (National Center for Advancing Translational Sciences (NCATS))
# CtBP-E1A inh – inhibitors of CtBP/E1A interaction | AlphaScreen GST-E1A/His-CtBP binding, 1536-well; stronger effect = lower value; control for the full effect not named in the record | activity change, % (no concentration beside the values) | hit rate 0.49% among 340,000; in the data active means activity change below about -65%; inconclusive means about -30% to -65%; inactive means above about -30%; also: % is scaled to controls: 0 for no effect and ±100 for the full control effect; compound concentration not given in the record
#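 AlphaScreen with 125 nM GST-E1A and 125 nM His-CtBP (5X stocks) in Tris pH 8.0, 300 mM NaCl, BSA, Tween 20, TCEP. Compounds preincubated 2 h at 37 deg C, then glutathione donor/nickel acceptor beads added for 1 h at 37 deg C in dark.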
# D2 PAM – potentiates the human D2 dopamine receptor allosterically. P14416. DiscoveRx D2 beta-arrestin cells, luminescence, 90 min; 100% = 57 uM dopamine signal. potentiation, % (concentration not given with the values). hit rate 0.23% among 360,000; active = potentiation of 50% or more; inconclusive = 30% to 50%; inactive = 30% or less;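 also: compound concentration not given in the record; tested on top of an EC20 dose of dopamine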
#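 PathHunter D2 cells, attached overnight at 37 deg C, received compound in DMSO plus dopamine at EC20 (50 nM final) for 90 min at 37 deg C. Beta-arrestin recruitment was read as luminescence after 1 h with detection reagent at ambient temperature.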
# gsp agonist – activates gsp, the McCune-Albright syndrome mutation. hit rate 0.13% among 340,000. gsp mutant cells, cAMP HTRF, 30 min; control for the full effect not named in the record. Potency, µM (titrated, usually from 76.9 µM), for the others: at the top dose activation (cAMP increase), most hits filed as activators; active = well fitted activation curve with a large enough effect; inconclusive = small, poorly fitted or top-dose-only effect, or another doubt; inactive = no such curve, though single readings can be large or run the other way; cell line not stated here;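 also: phosphodiesterase inhibitor Ro 20-1724 added with compounds to block cAMP breakdown; potency is read from the fitted curve at half-maximal effect; nearly all actives have a fitted effect of over 60% in size; about a fifth of the inactives were tested at one dose only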
#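 Cells in DMEM/10% FBS with G418 were pretreated with compounds in DMSO plus […] (300 uM stock) for 30 min at 37C. cAMP was measured by HTRF (cAMP-d2 plus anti-cAMP antibody-K) after 30 min at room temperature.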
# D2 agonist – activates the human D2 dopamine receptor | hit rate 0.084% among 360,000 | AID 624465 | activation, % (concentration not given with the values) | DiscoveRx PathHunter D2 beta-arrestin, luminescence, 90 min; 100% = 57 uM dopamine signal | P14416; in the data active = activation above about 40%; inconclusive = about 15% to 40%; inactive = below about 15%; also: compound concentration not given in the record; the text of the record calls up to 30% inactive
#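 DiscoveRx PathHunter D2 beta-arrestin cells (2,100/well) attached overnight, then compound-stimulated 90 min at 37 C in HBSS/10 mM HEPES/0.1% Tween-20 buffer; beta-galactosidase complementation read by luminescence after 1 h at ambient temperature. Dopamine 57 uM final (EC100) as control.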
# gsp antag – antagonizes gsp, the McCune-Albright syndrome mutation; gsp-mutant cells, cAMP HTRF, 30 min; control for the full effect not named in the record; Potency, µM (highest dose often 76.9 µM), without a hit: at the highest dose activity change, negative = inhibition, usual class: inhibitors; hit rate 0.4% among 340,000; active = falling curve of any shape with a large fitted effect; inconclusive = falling curve, mostly with a smaller effect; inactive = flat or rising curve; cell line not stated here;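 also: intracellular cAMP measured with PDE inhibitor Ro 20-1724 present during compound exposure; potency is read from the fitted curve at half-maximal effect; % is scaled to controls: 0 for no effect and ±100 for the full control effect; nearly all actives have a fitted effect of over 65% in size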
#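 HTRF cAMP measurement after 30 min RT detection following 30 min, 37C compound treatment alongside […] (added as 300 uM solution) in G418-selected cells seeded at 2000/well and grown 16–24 h.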
# Six1-Eya2 inh – inhibitors of human Six1/Eya2 interaction; hit rate 0.56% among 360,000; AID 651725; activity change, % (concentration not given with the values); AlphaScreen GST-Six1/His-Eya2 binding, biochemical; stronger effect = lower value; control for the full effect not named in the record; in the data active = activity change below about -65%; inconclusive = about -30% to -65%; inactive = above about -30%; also: % is scaled to controls: 0 for no effect and ±100 for the full control effect
# Target sequence (O00167 whole entry, looked up): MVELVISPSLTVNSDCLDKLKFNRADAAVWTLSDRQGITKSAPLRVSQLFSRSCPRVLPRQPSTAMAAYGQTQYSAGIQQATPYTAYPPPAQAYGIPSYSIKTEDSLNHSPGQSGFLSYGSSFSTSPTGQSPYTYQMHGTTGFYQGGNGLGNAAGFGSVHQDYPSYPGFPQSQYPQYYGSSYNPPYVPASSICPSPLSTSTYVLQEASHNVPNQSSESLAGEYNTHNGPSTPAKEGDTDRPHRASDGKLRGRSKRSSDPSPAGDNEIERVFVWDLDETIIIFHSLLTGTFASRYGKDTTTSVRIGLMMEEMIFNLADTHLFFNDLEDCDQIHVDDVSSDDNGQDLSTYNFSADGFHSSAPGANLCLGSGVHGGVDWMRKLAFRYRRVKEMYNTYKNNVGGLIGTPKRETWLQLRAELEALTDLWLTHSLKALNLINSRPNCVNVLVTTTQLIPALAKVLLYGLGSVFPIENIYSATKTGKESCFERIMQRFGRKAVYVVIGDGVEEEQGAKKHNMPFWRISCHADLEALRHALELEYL
# Target sequence (Q15475 whole entry, looked up): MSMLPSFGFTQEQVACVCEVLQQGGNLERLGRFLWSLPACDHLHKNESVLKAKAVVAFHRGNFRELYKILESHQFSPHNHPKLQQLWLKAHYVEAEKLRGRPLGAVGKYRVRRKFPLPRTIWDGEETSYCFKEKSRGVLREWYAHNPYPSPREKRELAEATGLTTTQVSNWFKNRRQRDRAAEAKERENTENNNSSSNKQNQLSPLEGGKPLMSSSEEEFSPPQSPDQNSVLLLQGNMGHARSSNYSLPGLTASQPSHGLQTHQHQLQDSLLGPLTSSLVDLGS
#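 AlphaScreen with GST-Six1 and His-Eya2 (5X mix: 250 nM and 500 nM), glutathione donor and nickel acceptor beads; buffer 50 mM Tris pH 8.0, 300 mM NaCl, 1 mM TCEP; 1 h at 37 C in the dark.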
# Active calls of the source: *; ? = inconclusive; / = not tested or not shown; [ ] = remark or other dose. Rows were taken by chance; 1.4% or so of the library scored in one or more.
# Values run as follows: CtBP-E1A inh, D2 PAM, gsp agonist, D2 agonist, gsp antag, Six1-Eya2 inh
Cc1nnc(NC(=O)C(C)Sc2nncn2C)s1 (stereo not given)
→ -3, -4, -67%[inhibitor], -6.0, 11%, 0
CCCCCN1CC(=O)N2C(C)c3[nH]c4ccccc4c3C[C@H]2C1=O (stereo not given in full)
→ /, 1, 3%, 6.0, -1%, -6
OCCN1CCN(c2cnc(-c3ccsc3)cn2)CC1
→ 7, 3, /, 2.5, /, -1
CC(=O)c1ccccc1NC(=O)CN1C(=O)NC2(CCCCCCC2)C1=O
→ 2, -8, -6%[15.4 µM], -3.7, -2%, -8
Cc1[nH]nc2c1[C@@H](c1ccccc1[N+](=O)[O-])C(C#N)=C(N)O2
→ -26, -7, -1%, 3.0, 3%, ?
Oc1ccc(Br)cc1-c1cc(-c2ccccc2Cl)[nH]n1
→ -2, -5, 3%, 8.5, 2%, 4
CC(C)(C)N(NC(=O)Nc1ccc(Cl)c(Cl)c1)C(=O)c1ccccc1
→ -2, 18, ?, -8.7, ?, 5
COc1cc(/C=N/Nc2nncn2N)ccc1OCc1c(C)no[n+]1[O-]
→ -5, -5, 6%, 2.9, -1%, -5
CN(C)C(=O)CCc1ccc2c3c([nH]c2c1)[C@]1(C)[C@@H](C(=O)N2CCOCC2)C[C@H](CC(=O)NCc2cccc(C(F)(F)F)c2)C(=O)N1CC3
→ -5, /, /, 1.2, -2%, 2
NC(=O)C1(N2CCCCC2)CCN(c2nc(-c3ccc(Br)cc3)cs2)CC1
→ 1, -2, 0%, -1.1, -7%, -3
CN(C)/C=C1/Nc2ccccc2C1=O
→ -5, -30, 5%, -11, 14%, -1
O=C(NCC(c1ccco1)N1CCc2ccccc21)C(=O)Nc1ccccc1 (stereo not given)
→ -12, 3, 7%[15.4 µM], -3.0, 2%, 5
CC(=O)Oc1ccc2ccccc2c1C(NC(=O)Cc1ccccc1)c1ccccc1 (stereo not given)
→ -19, -11, -25%, -3.5, -17%, -11
COc1ccccc1NC(=O)CSCc1nc2ccccc2[nH]1
→ 2, -30, 14%, 6.9, 16%, 2
Cc1ccc(S(=O)(=O)N2[C@@H](c3ccccc3F)C(C(=O)O)=CC[C@H]2c2ccc3c(c2)OCO3)cc1
→ 3, -5, /, -3.8, -9%, 2
O=S(=O)(c1ccc(Br)s1)N1CCN(c2ccccc2)CC1
→ 4, -8, 23%, -2.2, -13%, 3
CCOc1ccc(-c2n[nH]c(=S)c3ccccc23)cc1
→ -19, 0, 41%, -4.1, -7%, -13
O=C(CC(=O)c1ccccc1)Nc1cccnc1Cl
→ 7, -7, 8%[15.4 µM], -8.7, -6%, 0
CN1CCc2c(sc(/N=C/c3cc(Cl)ccc3O)c2C#N)C1
→ -7, 26, 7%[15.4 µM], 52*, -18%, -1
O=C(O)c1ccc2c(c1)C1C=CCC1C(c1ccncc1)N2 (stereo not given)
→ 2, -4, -10%[15.4 µM], -0.9, 15%, -2
Cn1ncc([N+](=O)[O-])c1C(=O)N1CCOCC1
→ -5, 0, -5%, -0.5, 5%, 12
COc1cc(/C=c2\sc3n(c2=O)C(c2ccccc2)C(c2ccccc2)=NN=3)ccc1O (stereo not given)
→ 2, -13, 0%, -4.4, -3%, -1
O=C(c1ccc2c(c1)[nH]c(=S)n1c3ccccc3nc21)N1CCN(c2cccc(Cl)c2)CC1
→ 7, -12, 10%[15.4 µM], 0.9, -19%, -7
COc1ccc(N(C)S(=O)(=O)c2cccc(C(=O)OCC(=O)Nc3cc(C)ccc3OC)c2)cc1
→ 3, 16, -67%[inhibitor], ?, /, 0
COc1ccc(OC)c(-c2csc(NC(=O)c3ccc4c(c3)OCO4)n2)c1
→ 5, -5, 1%[15.4 µM], -8.1, -14%, 0
Cc1cccnc1NC(=O)C1COc2ccccc2O1 (stereo not given)
→ 0, -11, 27%, 0.1, 3%, 4
CCOC(=O)CC12CN3CN(C1)CC(CC(=O)OCC)(C3)C2=O
→ 8, -2, ?, -1.4, 2%, 13
COCCCNC(=O)c1ccccc1N(Cc1ccccc1)S(=O)(=O)c1ccc(OC)cc1
→ 10, -1, -14%, 1.6, -7%, -1
COc1ccc(OC)c(N(CC(=O)N2CCCC2)S(=O)(=O)c2ccccc2)c1
→ 6, -5, -19%, -3.7, -2%, 7
Cc1nc(C(F)(F)F)ccc1C(=O)N1CCC1(C)C(=O)NS(C)(=O)=O (stereo not given)
→ 3, -11, /, -3.9, /, 6
CC(C)Sc1nc2sccc2c(=O)n1-c1ccccc1
→ 4, -6, 27%, -2.5, -16%, 5
CCn1ccc(C(=O)Oc2ccc(C(C)C)cc2)n1
→ 9, -21, -19%, -1.7, 6%, 7
Cc1c(NC(=S)NC(=O)c2ccc(Br)o2)c(=O)n(-c2ccccc2)n1C
→ /, -2, -25%, -1.0, 10%, 9
COc1ccccc1NC(=O)Cn1nnc(-c2ccccc2NC(=O)c2ccco2)n1
→ -1, 13, 7%, -0.6, 5%, 8
NC(=O)Cc1nc(-c2ccc(Br)cc2)cs1
→ -14, 0, -1%, -2.2, 11%, 1
CN1CCN(CC(=O)Nc2c(C(=O)c3ccccc3)oc3ccccc23)CC1
→ -8, -9, 5%[15.4 µM], -6.2, 5%, -4
CN(C)C1(CNCC(O)c2ccccc2)CCCCC1 (stereo not given)
→ 9, -2, 1%, 2.4, 19%, 7
O=c1c2ccccc2[nH]c2ccc(O)cc12
→ ?, 22, 21%[15.4 µM], 2.5, 1%, ?
S=c1[nH]nc(-c2ccco2)n1/N=C/c1ccc(Cl)cc1Cl
→ -25, -20, -21%, -4.5, ?, -12
CCCNC(=S)N1CCC(NC(=O)c2ccc(OC)cc2)CC1
→ /, 2, -20%, 0.1, 5%, 11
COCCCN(C(=S)NC(=O)c1ccc(C(C)(C)C)cc1)c1c(N)n(Cc2ccccc2)c(=O)[nH]c1=O
→ 2, -15, -6%, -5.1, 0%, -5
CCOC(=O)c1c(NC(=O)OC)sc(C(=O)N(CC)CC)c1C
→ -1, -7, 10%, -4.0, -10%, -3
NS(=O)(=O)c1ccc(CCNC(=O)CC(NC(=O)c2ccccc2Cl)c2ccccc2)cc1 (stereo not given)
→ 0, 0, -4%[15.4 µM], -0.2, 5%, 13
COc1ccc(/C=C2\SC(=O)N(CC(=O)Nc3cccnc3)C2=O)cc1OC
→ /, -7, 1%, -4.7, ?, -5
CCC(=O)NC(c1ccc(OC)cc1)c1cc(Cl)c2cccnc2c1O (stereo not given)
→ ?, -21, 24%, -10, -4%, ?
Nc1c(C(=O)Nc2ccc3c(c2)OCCO3)nnn1Cc1cccc(Cl)c1
→ -3, 2, -1%[15.4 µM], 4.0, -12%, -12
COc1cc(CNCC(C)C)c(Br)cc1OCC(=O)NCc1ccccc1
→ 0, -3, -77%[inhibitor], -0.2, 4%, 3
O=C(CCn1c(=O)c2sccc2n(Cc2cc(=O)n3ccccc3n2)c1=O)NCc1ccco1
→ -5, -5, 4%, -1.4, 6%, -1
COc1ccc(Nc2nc(NC(C)(C)C)nc(N3CCCC3)n2)c(OC)c1
→ ?, -19, ?, -5.4, ?, ?
N#Cc1c(N)n(-c2cccc(O)c2)c2nc3ccccc3nc12
→ 5, -4, 26%, 0.3, 5%, -4
Clc1cccc(/C=N/Nc2ncnc3ccccc23)c1
→ -17, 2, -10%, -1.0, 0%, -16
O=C1C(=O)N(CCCN2CCOCC2)C(c2ccc(Cl)cc2)/C1=C(/O)c1ccc(F)cc1 (stereo not given)
→ -6, -10, -13%, -3.7, 8%, 10
COC(=O)c1ccc2c(c1)c(-c1ccccc1)c(-c1ccccc1)n2C
→ -1, -6, /, -2.8, -12%, 4
O=C(Nc1ccncc1)C1CCC(CNS(=O)(=O)c2cccc3nsnc23)CC1 (stereo not given)
→ 1, -14, 18%, -1.6, ?, 2
CCOC(=O)c1cccnc1SCC(=O)N(CC)c1cccc(C)c1
→ 9, -3, -34%[inhibitor], -3.0, -10%, 6
Cc1cccc(OCCNC(=O)c2ccc(Oc3ccc(C(F)(F)F)cc3[N+](=O)[O-])cc2)c1
→ -4, -17, -8%, -2.3, 2%, -5
O=C(NN=Cc1ccc(O)c(O)c1)c1ccccc1
→ -4, 2, /, 6.4, /, -13
CCOC(=O)c1[nH]c(C)c(CC(C)C)c1C
→ -18, -5, -43%[inhibitor], -6.6, -2%, -9
O=C(CCC(=O)N1CCCC1)Nc1nnc(C2CCCCC2)s1
→ -9, 5, ?, -4.5, 5%, -13
CON(C)c1nc(NCC(C)C)nc(OCC#N)n1
→ 3, -6, -2%, -3.6, 4%, 0

# Additional records follow:
# Values run as follows: CtBP-E1A inh, D2 PAM, gsp agonist, D2 agonist, gsp antag, Six1-Eya2 inh
Cn1c(=O)[nH]c(=O)c2c1nc(CN1CCN(c3cccc(Cl)c3)CC1)n2CCCc1ccccc1
→ -4, -8, -25%, -5.0, -16%, -7
Cc1nc(N(CCO)C2CCCCC2)c2nnn(Cc3ccccc3)c2n1
→ -2, -5, -18%, 4.6, -16%, -2
O=C(Nc1ccccc1C(=O)O)c1cccc(C(=O)Nc2ccccc2C(=O)O)c1
→ ?, 17, -9%, ?, -29%, ?
COc1cc(F)c(C2=CC(=O)C[C@H](c3ccc(F)cc3)C2)cc1F
→ 7, -5, -27%, -2.2, -8%, 0
COc1cc(/C=N/NC(=O)CCC(=O)Nc2ccc(F)cc2)ccc1O
→ 0, -8, -10%[15.4 µM], -3.4, 4%, -12
CCCCCCn1c(CN2CCN(C(=O)OCC)CC2)nc2c1c(=O)n(C)c(=O)n2C
→ 15, -4, 12%, 0.6, 2%, 3
Cc1c(C)c2c(c(C)c1O)CC[C@@](C)(CCC[C@H](C)CCC[C@H](C)CCCC(C)C)O2
→ 7, -5, /, -4.4, 3%, 4
